# Assay outcomes (PubChem)
# MARV entry inh = qHTS for inhibitors of binding or entry into cells for Marburg Virus. Marburg virus pseudotyped entry inhibition, cell reporter; control for the full effect not named in the record; about a third of the inactives were read at about 46 µM. Potency, µM (doses to about 37.8 µM), for the others: top-dose activity change, negative = inhibition, most hits filed as inhibitors. actives 1.8% (n = 300,000). AID 540276, 2011; active = well fitted inhibition curve with a large enough effect; inconclusive = small, poorly fitted or top-dose-only effect, or effect the other way; inactive = flat fitted curve, though single readings scatter; tested in HEK293 cells; about a fifth of its hits are not listed in these tables; note: % is set by controls: 0 for no effect and ±100 for the full control effect; luciferase read-out
# SARS PLP yeast = qHTS of Yeast-based Assay for SARS-CoV PLP | S. cerevisiae expressing SARS-CoV PLpro, growth rescue; control for the full effect not named in the record | Potency, µM (doses to about 32.9 µM), for the others: at the top dose activity, positive = growth rescue | actives 0.19% (n = 330,000); active means well fitted rising curve with a large enough effect; inconclusive means small, poorly fitted or top-dose-only effect; inactive means no such curve, though single readings can be large or run the other way; note: 0% is about no effect; nearly all actives have a fitted effect of over 55% in size; growth read by luminescence after 48 h
# Cruzain inh noDet = qHTS Assay for Promiscuous and Specific Inhibitors of Cruzain (without detergent); actives 2.3% (n = 200,000); Cruzipain (Trypanosoma cruzi), P25779; purified cruzain, Z-FR-AMC fluorescence, no detergent; Potency, µM, for inactives: max response, negative = inhibition, actives largely listed as inhibitors;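 note: plate controls were enzyme without inhibitor for no effect and buffer without enzyme for full effect; nearly all actives have a fitted effect of over 40% in size; top concentration of the series not given in the record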
# Target sequence (P25779 123-467 limits assumed): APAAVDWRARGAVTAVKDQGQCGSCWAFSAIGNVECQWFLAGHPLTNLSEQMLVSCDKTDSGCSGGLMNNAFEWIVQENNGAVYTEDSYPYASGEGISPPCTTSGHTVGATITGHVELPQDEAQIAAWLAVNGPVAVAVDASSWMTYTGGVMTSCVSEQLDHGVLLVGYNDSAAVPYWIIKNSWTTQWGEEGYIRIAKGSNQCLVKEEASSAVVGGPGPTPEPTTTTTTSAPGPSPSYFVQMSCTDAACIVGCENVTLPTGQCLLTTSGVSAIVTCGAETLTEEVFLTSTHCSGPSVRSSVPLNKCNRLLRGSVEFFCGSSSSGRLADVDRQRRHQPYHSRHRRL
#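 Purified cruzain at 1.5 nM, pre-incubated 15 min with compound at room temperature in 100 mM sodium acetate pH 5.5, 5 mM DTT, 0.00005% Triton X-100. Reaction started with 2 uM Z-FR-AMC; AMC fluorescence increase over 60 s gives rate.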
# StopGo reporter = High Throughput Screening for Foot and Mouth Disease Virus Antivirals | human cells with a luciferase reporter of 2A StopGo recoding; control for the full effect not named in the record | Potency, µM (series often up to 57.9 µM), inactives show at the highest dose signal change, negative = less light | actives 1.2% (n = 410,000) | AID 1159524, 2015; active = well fitted falling curve with a large enough effect; inconclusive = small, poorly fitted or top-dose-only effect; inactive = no such curve, though single readings can be large or run the other way; tested in HEK293T cells; note: % is set by controls: 0 for no effect and ±100 for the full control effect; nearly all actives have a fitted effect of over 45% in size; luciferase light after 4 h
# Cruzain Triton = qHTS Assay for Promiscuous and Specific Inhibitors of Cruzain (with detergent) | AID 1478, 2009 | purified cruzain, Z-FR-AMC fluorescence, 0.01% Triton | actives 0.43% (n = 200,000) | Cruzipain (Trypanosoma cruzi), P25779 | Potency, µM, for the others: max response, negative = inhibition, most hits filed as inhibitors;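 note: plate controls were neutral wells for no effect and buffer without enzyme for full effect; nearly all actives have a fitted effect of over 40% in size; top concentration of the series not given in the record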
#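 Steps: dispense cruzain (1.5 nM final) in acetate buffer pH 5.5 with DTT and 0.01% Triton X-100; pin-transfer compounds; incubate 15 min RT; add Z-FR-AMC (2 uM final); read fluorescence every 30 s, using the 60 s intensity change.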
# NS1 function inh = qHTS Assay for Inhibitors of Influenza NS1 Protein Function. S. cerevisiae slowed by influenza A NS1, growth recovery by OD600. Potency, µM (doses to about 46.1 µM), without a hit: at the highest dose activity, positive = more growth. actives 0.4% (n = 270,000). AID 2326, 2010; active means well fitted rising curve with a large enough effect; inconclusive means small, poorly fitted or top-dose-only effect; inactive means no such curve, though single readings can be large or run the other way; note: nearly all actives have a fitted effect of over 50% in size
#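 S. cerevisiae expressing influenza A NS1, grown in glucose, washed, then diluted 1:100 into pH 6.0 -URA galactose medium with 23 nl compound. Growth recovery read as OD600; NS1-free strain serves as control.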
# RE007 growth inh = qHTS Assay for Inhibitors of the HIV-1 protein Vpr | S. pombe RE007 Vpr strain, BacTiter-Glo ATP luminescence, 24 h; control for the full effect not named in the record | Potency, µM (top dose mostly 92.2 µM), without a hit: at the top dose activity change, negative = less growth | actives 0.21% (n = 360,000) | AID 651644, 2012; active = well fitted falling curve with a large enough effect; inconclusive = small, poorly fitted or top-dose-only effect; inactive = no such curve, though single readings can be large or run the other way;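 note: % is set by controls: 0 for no effect and ±100 for the full control effect; nearly all actives have a fitted effect of over 50% in size; the assay follows cell death caused by Vpr and the record does not say whether a fall means rescue or toxicity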
#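 Fission yeast RE007 carrying one integrated HIV-1 vpr copy, seeded at OD 0.01 in PMG+AL medium with 23 nL pinned compound. Grown 24 h at 30 degrees; viability read by BacTiter-Glo luminescence after 5 min.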
# LASV entry inh = qHTS for Inhibitors of binding or entry into cells for Lassa Virus; Lassa virus pseudotype entry inhibition, cell reporter; control for the full effect not named in the record; Potency, µM (highest dose often 37.9 µM), for inactives: at the top dose activity change, negative = inhibition, most hits filed as inhibitors; actives 1.2% (n = 300,000); AID 540256, 2011; active means well fitted inhibition curve with a large enough effect; inconclusive means small, poorly fitted or top-dose-only effect, or effect the other way; inactive means flat fitted curve, though single readings scatter; tested in HEK293 cells; note: % is set by controls: 0 for no effect and ±100 for the full control effect; nearly all actives have a fitted effect of over 50% in size; luciferase read-out
# * = called active by the depositor; ? = inconclusive; · = no result given; & = joins results of further samples; [ ] = dose if it differs, or a comment. Unless noted, calls come from the whole dose curve; as a rule, active = well fitted curve in the direction sought with a large enough effect; inconclusive = small, poorly fitted or top-dose-only effect, or another doubt; inactive = no such curve, though single readings can be large; an effect the other way counts as inactive or inconclusive. Potency is the fitted concentration of half-maximal effect.
compound	MARV entry inh	SARS PLP yeast	Cruzain inh noDet	StopGo reporter	Cruzain Triton	NS1 function inh	RE007 growth inh	LASV entry inh
Cc1cc(C)cc(NC(=O)Cn2nnc(C(=O)NCc3ccccc3Cl)c2N)c1	13%&13%[46.1 µM]	7%	-19%	0%&-6%	-0.3%	10%	-2%	?
CCCC(C)NC(=O)CSc1nnc2ccccn12 (stereo not given)	?	3%	·	8%	·	·	-11%	3%
COc1ccc2c(c1OC)C(=O)NC(C)=C(C(=O)OC(C)(C)C)C2O (stereo not given)	-1%	-2%	-9%	·	1.0%	-32%	-8%	17%
O=C1C2C3C=CC(C3)C2C(=O)N1c1nc2ccccc2s1 (stereo not given)	5%	5%	-2%	52%[activator]	0.4%	1%	8%	12%
CCOC(=O)c1ccc(-c2ccc(/C=N/NC(=O)CN(c3ccccc3Br)S(C)(=O)=O)o2)cc1	?	9%	18%	-28%	-9.9%	-63%	·	14%
COc1ccc(C(=O)Nn2c(CC(C)C)nc3cc(Cl)ccc3c2=O)c(OC)c1	-9%[46.1 µM]	-5%	·	-8%	·	18%	8%	-13%[46.1 µM]
COc1ccc(NC(=O)CSc2c3c(nc4ccccc24)CCC3)cc1Cl	23%[46.1 µM]	·	-3%	0%	-3.2%	·	·	-6%[46.1 µM]
COc1cccc(C(=O)Nc2ccc(NC(=O)c3ccco3)cn2)c1	?	-15%	1%	-4%	1.8%	-155%	-7%	1%
O=C(Cc1cccs1)Nc1cccc([N+](=O)[O-])c1	?	2%	·	17%	·	-6%	5%	-1%
CCCN(C(=O)c1cc(C)ccc1C)c1c(N)n(Cc2ccccc2)c(=O)[nH]c1=O	7%	-1%	·	-10%	·	·	0%	-2%
CCCN(CCC)S(=O)(=O)c1ccc(C)cc1	·	7%	·	-18%	·	7%	20%[18.4 µM]	·
Cc1occc1-c1nnc(SCC(=O)N2CC(=O)Nc3ccccc32)n1CC(C)C	-1%[46.1 µM]	1%	-10%	-14%	4.2%	2%	9%	-21%
COc1ccc(CNC(=O)CNC(=O)c2c(C)nn(C)c2Cl)cc1	2%[46.1 µM]	-1%	·	-20%	·	0%	-20%	2%[46.1 µM]
CCOC(=O)c1ccc(CN(Cc2ccccc2)S(=O)(=O)c2ccc(Cl)cc2)cc1	·	·	-13%	-15%	0.3%	·	·	-1%[46.1 µM]
Cc1ccc(CN2C(=O)CC(c3ccc(Cl)cc3)c3c(C)nn(-c4nc(C)cc(C)n4)c32)cc1 (stereo not given)	4%[46.1 µM]	·	?	-18%	-8.4%	·	·	3%[46.1 µM]
CCOC(=O)c1[nH]c2ccccc2c1NC(=O)c1cc(OC)cc(OC)c1	3%[46.1 µM]	·	-1%	-28%	-12%	·	·	-10%[46.1 µM]
COc1ccccc1NC(=O)C1C2C=CC3(CN(Cc4cccnc4)C(=O)C13)O2 (stereo not given)	4%	5%	-8%	-26%	5.5%	11%	-12%	·
COc1cc(NC(=O)CN2C(=O)c3ccccc3S2(=O)=O)c(OC)cc1Cl	-4%	3%	-13%	7%	2.2%	-37%	3%	7%
Cc1cccn2c(CNC3CCCc4ccccc43)c(C(=O)N3CCCCC3)nc12 (stereo not given)	10µM*	0%	·	-18%	·	-7%	-11%	?
Cn1cc(CN2CCCC(CO)(Cc3ccccc3)C2)c2ccccc21 (stereo not given)	1µM*	0%	·	?	·	4%	-10%	?
CCCCNC(=S)Nc1ccc([N+](=O)[O-])cc1	?	-72%	-2%	17%	-14%	-38%	-11%	?
Cc1ccsc1/C=C1\Oc2cc(OCC(=O)c3ccccc3)ccc2C1=O	?	21%	13µM*	4%	-5.3%	8%	7%	11%
COc1ccc(S(=O)(=O)NCc2cccnc2)cc1OC	5%[46.1 µM]	-8%	·	25%	·	14%	2%	-2%[46.1 µM]
O=c1c2[nH]c3ccccc3c2ncn1Cc1cccnc1	10%	10%	6%	-12%	1.8%	4%	-6%	5%
O=S(=O)(NCC(c1ccco1)S(=O)(=O)c1ccccc1)c1cc(F)ccc1F (stereo not given)	·	·	-9%	59%[activator]	-4.6%	·	·	1%[46.1 µM]
O=C1NC(c2ccc(Br)cc2)Oc2ccccc21 (stereo not given)	·	2%	·	-1%	·	3%	3%	·
Cc1cc(C)c(-c2c(O)c3c(n(C)c2=O)CC(C)(C)CC3=O)c(C)c1	0%	15%	-1%	-13%	0.4%	-23%	10%	-3%
CCn1c(SCC(=O)NCc2ccc3c(c2)OCO3)nnc1-c1cccs1	-1%	1%	-2%	17%	2.7%	-7%	-1%	1%
Cc1cc(C)cc(C(=O)NCCc2sc(-c3ccc(F)cc3)nc2C)c1	·	·	27%	-10%	-5.0%	·	·	-3%[46.1 µM]
CCOC(=O)c1ccc(N=Cc2c(O)n(-c3ccc(OC)cc3)c(=S)[nH]c2=O)cc1	·	1%	·	-6%	·	7%	0%	·
S=C(Nc1ccccc1)Nc1ccc(Cl)cn1	0%[46.1 µM]	4%	·	21%	·	-4%	-10%	-26%
COc1ccc(S(=O)(=O)N(CCc2ccccc2)CC(=O)NC(C)C)cc1	5%	3%	15%	9%	4.2%	-3%	-6%	-12%
Cc1nc2ccc(NC(=O)NCCCO)cc2s1	8%	0%	-1%	-10%	3.1%	-2%	10%	10%
Cn1c(=O)[nH]c(=O)c2c1nc(Br)n2CCSc1nc2ccccc2o1	0%	4%	-11%	5%	-0.7%	-3%	-1%	-1%
COC(=O)CNC(=O)C1CCCN1C(=O)CNC(=O)OCc1ccccc1 (stereo not given)	?	0%	·	-1%	·	2%	1%	-2%[46.1 µM]
COc1ccc(CNC(=O)c2ccc3c(c2)N(Cc2cccc(Cl)c2)C(=O)c2ccccc2S3)c(OC)c1	·	·	13µM*	-13%	0.0%	·	·	14%[46.1 µM]
Cc1ccc(SCC(=O)NNC(=O)CNC(=O)c2ccc(Br)cc2)cc1	1%[46.1 µM]	0%	·	-6%	·	·	8%	2%[46.1 µM]
COC(=O)CNc1nc(Cl)nc(N2CCC(C)CC2)n1	·	2%	·	?	·	-1%	-4%	·
CCC(C)c1ccc(NC(=S)NCCn2cc(Br)cn2)cc1 (stereo not given)	-26%[46.1 µM]	-1%	·	2%	·	·	4%	?
CC(C)(C)C(=O)NC(=S)Nc1ccc(Cc2ccncc2)cc1	?	13%	·	?	·	3%	-10%	-18%
CC(C(=O)NCc1ccccc1)N1C(=O)c2ccccc2C1=O (stereo not given)	0%	0%	·	-13%	·	-1%	49%	1%
COc1ccc2oc(C(=O)OC(C)C(=O)N3C(C)CCCC3C)c(C)c2c1 (stereo not given)	20%[46.1 µM]	-12%	·	-29%	·	·	19%	?
Cc1nc(-c2cccnc2)sc1C(=O)Nc1ccc(F)cc1F	2%	8%	3%	0%	-2.6%	-36%	6%[3.69 µM]	-3%
COc1ccc(NC(=O)CN2CCN(Cc3ccc4c(c3)OCO4)CC2)cc1OC	-2%	-1%	-3%	-3%	5.8%	13%	2%	-9%
O=[N+]([O-])c1cccc(-c2nc(-c3cccs3)c(-c3cccs3)[nH]2)c1	?	-10%	?	?	-1.0%	4%	-15%	-15%
Cc1ccc(NC(=O)COc2ccc3oc4c(c3c2)CCCC4)nc1	37%&-1%	0%	?	0%	5.0%	-6%	9%	2%
CCN(CC)C(=O)CN(c1cc(Cl)ccc1OC)S(=O)(=O)c1ccc(C)c([N+](=O)[O-])c1	-24%	24%	25%	83%[activator]	-3.9%	-2%	-1%	-12%
COc1ccc(N=Cc2c(O)c3ccccc3n2C(C)=O)cc1	·	-2%	·	34%[activator]	·	-4%	?	·
Cc1cc(NC(=O)CN2C(=O)CSc3ccc(S(=O)(=O)N(C)C)cc32)ccc1Br	·	·	?	-26%	-1.4%	·	·	-7%[46.1 µM]
O=C1CC(c2ccccc2)CC(O)=C1C=Nc1ccc(Cl)cc1 (stereo not given)	-2%	2%	6%	18%	1.6%	5%	-18%	-9%
CCN(CC)c1ccc(/C=C(/C#N)c2nc3ccc(C)cc3[nH]2)c(OC(C)C)c1	?	-2%	25µM*	7%	1.8%	18%	8%	?
Cc1cccc(C)c1NC(=O)Cn1c(=O)n(CCCC(=O)NCc2ccco2)c(=O)c2sccc21	-2%	5%	-10%	-1%	-0.4%	15%	-16%	1%
COc1ccc(/C=N/Nc2cc(C)nc(N3CCOCC3)n2)c(OC)c1	-2%[46.1 µM]	1%	·	-3%	·	0%	2%	12%
Cc1nn(Cc2cccc(C(=O)NCC(C)C)c2)c(C)c1Br	5%	-14%	30%	?	-3.4%	-3%	14%	?
CCSC1=C(C#N)C(c2ccc(OC)c(OC)c2)CC(=O)N1 (stereo not given)	25%	1%	0%	-10%	1.3%	1%	0%	4%
Fc1ccc(C2CCCN2Cc2nc(Cc3ccccc3F)no2)cc1 (stereo not given)	·	-4%	·	-17%	·	-10%	-14%	·
COc1ccc2[nH]c3c(Cl)ncnc3c2c1	?	10%	-9%	-20%	-4.2%	-12%	-21%	-23%
O=CN1CCN(C(=S)NC(=O)c2ccc(Cl)cc2)CC1	·	-2%	·	28%	·	3%	2%	·
COc1cc(Br)cc2cc(C(=O)NCC3CCCO3)c(=O)oc12 (stereo not given)	-1%	0%	-1%	5%	2.9%	18%	1%	3%
COC(=O)c1ccc(C2C(C(=O)c3cc4ccccc4o3)=C(O)C(=O)N2CCCN(C)C)cc1 (stereo not given)	-4%&28%	-3%	-1%	-14%	-2.7%	1%	4%	13%
